Source: PubChem BioAssay (National Center for Advancing Translational Sciences (NCATS))
LASV entry inh – inhibitors of Lassa virus binding or cell entry; Lassa virus pseudotype entry inhibition, cell reporter; control for the full effect not named in the record; Potency, µM (top dose mostly 37.9 µM), inactives show at the highest dose activity change, negative = inhibition, most hits filed as inhibitors; 1.2% of 300,000 active; AID 540256; active means well fitted inhibition curve with a large enough effect; inconclusive means small, poorly fitted or top-dose-only effect, or effect the other way; inactive means flat fitted curve, though single readings scatter; tested in HEK293 cells; also: % is scaled to controls: 0 for no effect and ±100 for the full control effect; nearly all actives have a fitted effect of over 50% in size; luciferase read-out
2A StopGo – FMDV 2A StopGo reporter, luciferase signal | human cells with a luciferase reporter of 2A StopGo recoding; control for the full effect not named in the record | Potency, µM (top dose mostly 57.9 µM), for inactives: at the top dose signal change, negative = less light | 1.2% of 410,000 active | AID 1159524; active = well fitted falling curve with a large enough effect; inconclusive = small, poorly fitted or top-dose-only effect; inactive = no such curve, though single readings can be large or run the other way; tested in HEK293T cells; also: % is scaled to controls: 0 for no effect and ±100 for the full control effect; nearly all actives have a fitted effect of over 45% in size; luciferase light after 4 h
Cruzain inh Det – blocks cruzain activity in presence of Triton detergent; 0.43% of 200,000 active; Potency, µM, inactives show max response, negative = inhibition, most hits filed as inhibitors; purified cruzain, Z-FR-AMC fluorescence, 0.01% Triton; P25779;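 also: plate controls were neutral wells for no effect and buffer without enzyme for full effect; nearly all actives have a fitted effect of over 40% in size; top concentration of the series not given in the record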
Target sequence (P25779 123-467 limits assumed): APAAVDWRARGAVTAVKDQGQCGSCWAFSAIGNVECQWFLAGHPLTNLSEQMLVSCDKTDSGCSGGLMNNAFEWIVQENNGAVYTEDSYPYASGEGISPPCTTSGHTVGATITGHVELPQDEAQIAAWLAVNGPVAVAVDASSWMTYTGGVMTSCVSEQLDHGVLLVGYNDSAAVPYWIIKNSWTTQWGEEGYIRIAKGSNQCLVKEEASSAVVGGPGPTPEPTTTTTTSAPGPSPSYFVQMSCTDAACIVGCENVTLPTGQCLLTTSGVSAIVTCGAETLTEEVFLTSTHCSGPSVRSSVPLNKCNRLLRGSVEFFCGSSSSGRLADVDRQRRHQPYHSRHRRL
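Cysteine protease activity tested under reducing, mildly acidic conditions (100 mM sodium acetate pH 5.5, 5 mM DTT) plus 0.01% Triton X-100. Cruzain 1.5 nM; substrate Z-FR-AMC 2 uM; 15 min compound preincubation at room temperature.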
SARS PLpro yeast – SARS-CoV PLP inhibition in yeast; 0.19% of 330,000 active; S. cerevisiae expressing SARS-CoV PLpro, growth rescue; control for the full effect not named in the record; Potency, µM (series often up to 32.9 µM), for the others: at the highest dose activity, positive = growth rescue; AID 485353; active means well fitted rising curve with a large enough effect; inconclusive means small, poorly fitted or top-dose-only effect; inactive means no such curve, though single readings can be large or run the other way; also: 0% is about no effect; nearly all actives have a fitted effect of over 55% in size; growth read by luminescence after 48 h
NS1 function inh – inhibitors of influenza NS1 protein function; S. cerevisiae slowed by influenza A NS1, growth recovery by OD600; Potency, µM (highest dose often 46.1 µM), inactives show at the highest dose activity, positive = more growth; 0.4% of 270,000 active; active means well fitted rising curve with a large enough effect; inconclusive means small, poorly fitted or top-dose-only effect; inactive means no such curve, though single readings can be large or run the other way; also: nearly all actives have a fitted effect of over 50% in size
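In this qHTS, NS1 from influenza A is expressed in budding yeast, where it slows growth. Cells are switched from glucose to 2% galactose medium (pH 6.0, -URA), treated with compound, and growth recovery is read at OD600.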
RE007 growth inh – less growth of the S. pombe RE007 Vpr strain | AID 651644 | 0.21% of 360,000 active | Potency, µM (titrated, usually from 92.2 µM), for the others: top-dose activity change, negative = less growth | S. pombe RE007 Vpr strain, BacTiter-Glo ATP luminescence, 24 h; control for the full effect not named in the record; active = well fitted falling curve with a large enough effect; inconclusive = small, poorly fitted or top-dose-only effect; inactive = no such curve, though single readings can be large or run the other way;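 also: % is scaled to controls: 0 for no effect and ±100 for the full control effect; nearly all actives have a fitted effect of over 50% in size; the assay follows cell death caused by Vpr and the record does not say whether a fall means rescue or toxicity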
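Fission yeast RE007 carrying one integrated HIV-1 vpr copy, seeded at OD 0.01 in PMG+AL medium with 23 nL pinned compound. Grown 24 h at 30 degrees; viability read by BacTiter-Glo luminescence after 5 min.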
MARV entry inh – inhibitors of Marburg virus binding or cell entry | Potency, µM (series often up to 37.8 µM), for inactives: at the top dose activity change, negative = inhibition, actives largely listed as inhibitors | Marburg virus pseudotyped entry inhibition, cell reporter; control for the full effect not named in the record; about a third of the inactives were read at about 46 µM | 1.8% of 300,000 active; active = well fitted inhibition curve with a large enough effect; inconclusive = small, poorly fitted or top-dose-only effect, or effect the other way; inactive = flat fitted curve, though single readings scatter; tested in HEK293 cells; about a fifth of its hits are not listed in these tables; also: % is scaled to controls: 0 for no effect and ±100 for the full control effect; luciferase read-out
Cruzain noTriton – cruzain (T. cruzi) inhibition without detergent; P25779; purified cruzain, Z-FR-AMC fluorescence, no detergent; Potency, µM, without a hit: max response, negative = inhibition, hits mostly inhibitors; 2.3% of 200,000 active;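 also: plate controls were enzyme without inhibitor for no effect and buffer without enzyme for full effect; nearly all actives have a fitted effect of over 40% in size; top concentration of the series not given in the record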
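Purified cruzain at 1.5 nM, pre-incubated 15 min with compound at room temperature in 100 mM sodium acetate pH 5.5, 5 mM DTT, 0.00005% Triton X-100. Reaction started with 2 uM Z-FR-AMC; AMC fluorescence increase over 60 s gives rate.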
Numbers without * were called inactive; u = inconclusive; x = not tested or not shown; & = joins results of further samples; [ ] = another dose, or the depositor's remark. Unless noted, calls follow the shape of the dose curve; as a rule, active = well fitted curve in the direction sought with a large enough effect; inconclusive = small, poorly fitted or top-dose-only effect, or another doubt; inactive = no such curve, though single readings can be large; an effect the other way counts as inactive or inconclusive. Potency is read from the fitted curve at half-maximal effect.

SMILES | LASV entry inh | 2A StopGo | Cruzain inh Det | SARS PLpro yeast | NS1 function inh | RE007 growth inh | MARV entry inh | Cruzain noTriton
COC(=O)c1cc(=O)n(-c2ccccc2)c(=Nc2ccccc2)s1 | -1% | 13µM* | 0.2% | -37% | -65% | 0% | 1% | 29%
O=S(=O)(Nc1cccc(S(=O)(=O)N2CCOCC2)c1)c1ccc(Cl)s1 | -5% | 6% | x | 3% | -1% | 0% | 20%[46.1 µM] | x
N#Cc1c(-c2ccccc2)nc(N2CCOCC2)[nH]c1=O | 3% | 1% | -4.3% | -9% | -7% | 25% | -1% | u
CCOC(=O)c1ccc(NC(=O)N2C3CCCC2CC(NC(C)=O)C3)cc1 (stereo not given) | x | 8% | x | 4% | 5% | -3% | x | x
CC1C=Cc2ccccc2N1C(=O)c1ccccc1 (stereo not given) | 11% | x | 4.6% | -9% | -20% | 6% | -3% | -2%
O=C(NCCC1=CCCCC1)c1ccc(Cl)c(S(=O)(=O)N2CCOCC2)c1 | -21% | u | -1.1% | -2% | -31% | 18% | -11% | -2%
CC1CN(N=Cc2ccc([N+](=O)[O-])o2)C(=N)O1 (stereo not given) | u | 0% | x | x | x | -1% | u | x
CC(=O)c1cc2c(cc1NS(=O)(=O)c1ccccc1F)OCO2 | x | 18% | x | -6% | 5% | -1% | x | x
O=C(Nc1cccc(S(=O)(=O)N2CCOCC2)c1)c1ccco1 | -2% | -17% | 1.5% | 3% | 8% | 18% | -6% | -2%
C[C@@H]1CN(C(=O)c2nc3ccc(Cl)cn3c2CN[C@H]2CCCCNC2=O)C[C@H](C)O1 | x | 0% | x | -1% | 0% | 4% | x | x
Cc1ccc2oc(C(=O)Nc3cccc(Cl)c3)cc(=O)c2c1 | 0%[46.1 µM] | 5% | 1.2% | x | x | x | u | -14%
Cc1cccc2c(=O)c(-c3ccc(Cl)cc3)c(NC(=O)c3ccco3)oc12 | x | -10% | x | -3% | 1% | -4% | x | x
CC1(C)C(C=C(Cl)Cl)C1C(=O)N(Cc1ccc(Cl)cc1)C1CCS(=O)(=O)C1 (stereo not given) | u | -16% | -4.8% | -7% | -12% | 4% | 13µM* | 26%
O=C(c1cccs1)n1cc(C(=S)N2CCOCC2)c2ccccc21 | 3% | -7% | -3.3% | x | -3% | 3%[3.69 µM] | -17% | -6%
CCCC[N+]1(C)[C@@H]2CC(OC(=O)[C@H](CO)c3ccccc3)C[C@H]1[C@@H]1O[C@@H]12 (stereo not given in full) | x | -18% | x | -9% | 3% | 9%[18.4 µM] | x | x
CC(Cc1ccccc1)C(=O)N(C)Cc1ccccc1 (stereo not given) | -4% | -16% | 1.9%&-0.8% | -4% | 9% | 4% | 7% | 3%&-9%
COc1cc(/C=C(\C#N)c2[nH]nc(N)c2C#N)cc(OC)c1O | -15% | -7% | -3.0% | -10% | 8% | 4% | u | -18%
CCOC(=O)c1cccc(NC(=O)CCCn2c(C)c3cnn(-c4ccccc4)c(=O)c3c2C)c1 | -26%[46.1 µM] | u | -5.6% | x | x | x | -25%[46.1 µM] | u
CCC(=O)c1c[nH]c(C(=O)NCC2CCCO2)c1 (stereo not given) | -2% | -9% | 0.2% | 1% | -1% | 3% | 3%[46.1 µM] | 3%
COc1ccc(-n2c(SCC(=O)Nc3cc(C)on3)nc3c([nH]c4ccccc43)c2=O)cc1OC | -19% | 0% | x | -1% | 17% | -1% | u | x
Cc1ccc2nc(SCc3nc4c(cnn4-c4ccccc4)c(=O)[nH]3)[nH]c2c1 | u | 11µM* | 5.6% | 4% | 8% | -1% | u | -8%
Cc1cccc(NC(=O)c2ccoc2C)n1 | 17% | 23% | -0.9% | -10% | -6% | -21% | -5% | -6%
CCCC(=O)Nc1ccc(C(=O)NCC2CCCO2)cc1 (stereo not given) | 8% | -15% | -1.2% | 11% | 22% | -2%[3.69 µM] | 14% | -4%
Cc1ccc(Nc2nc3c(S(=O)(=O)c4ccccc4)nnn3c3ccsc23)c(C)c1 | 5%[46.1 µM] | 3% | 0.1% | x | x | x | x | 15%
Cc1ccc(N(CC(=O)NC(C)(C)C)C(=O)CNC(=O)c2cccs2)c(C)c1 | 21%[46.1 µM] | -11% | x | 0% | 2% | 21% | -15%[46.1 µM] | x
SMILES | LASV entry inh | 2A StopGo | Cruzain inh Det | SARS PLpro yeast | NS1 function inh | RE007 growth inh | MARV entry inh | Cruzain noTriton
Nc1nonc1NC(=O)NN=C1CCCCC1 | 5% | -22% | -0.2% | 6% | -4% | 5% | -6% | 2%
N#Cc1c(NC(=O)COC(=O)c2ccc(F)cc2)sc2c1CCC2 | -4% | 9% | 2.5% | 7% | -4% | -2% | 2% | u
CC1(C2CC(C(F)(F)F)n3nc(C(=O)O)cc3N2)CC1 (stereo not given) | 6% | -2% | x | 0% | 7% | 1% | 1%[46.1 µM] | x
O=C(c1ccco1)N1CCN(Cc2nnc(-c3cccc(Cl)c3)o2)CC1 | -2% | -9% | x | -1% | -2% | -1% | 0%[46.1 µM] | x
CN(C)c1ccc(C=Nc2ccccc2C(N)=O)cc1 | u | -37% | -7.7% | -7% | -108% | -26% | 15µM* | -7%
CC(C)c1ccc(NC(=O)CSc2n[nH]c(=O)n2-c2ccc3c(c2)OCCO3)cc1 | -24%[46.1 µM] | -12% | x | 0% | -1% | 4% | -3%[46.1 µM] | x
O=C(NC1CCCCC1)c1ccc2[nH]c(=O)c(=O)[nH]c2c1 | x | -5% | x | -7% | -9% | 12% | x | x
CC(C)n1c(O)c(/C=C2\C=NN=C2c2ccccc2)sc1=S | u | u | x | 0% | 6% | -4% | 11µM* | x
Cc1ccc(C)c(-c2cc(C(=O)Nc3nccs3)c3ccccc3n2)c1 | -24% | u | -2.6% | -2% | -2% | -1% | -13% | -28%
CCOCCCNC(=O)c1cc2c(s1)-c1ccccc1SC2 | x | 41%[activator] | x | -5% | -28% | -17% | x | x
O=C(OCC(=O)c1cccs1)C1=COCCO1 | u | 34%[activator] | -9.6% | -2% | -9% | 0% | u | 11%
COc1cc(C2c3c(-c4ccccc4O)n[nH]c3C(=O)N2Cc2ccncc2)ccc1O (stereo not given) | u | -5% | -0.2% | x | x | x | 0%[46.1 µM] | -8%
O=C(Nc1ccncc1)OCc1ccccc1 | -6% | -21% | x | -1% | -20% | -11% | u | x
CCCNC(=O)OC[C@H]1O[C@H](CCO/N=C/c2ccc(C(=O)N3[C@H](c4ccc(C)cc4)[C@@H](C)CC[C@H]3C(=O)OC)cc2)C=C[C@@H]1Oc1ccc(OC)cc1 | u | x | 1.9% | 7% | 10% | x | -28%[14.2 µM] | -7%
N#CCN1CCN(CCC(=O)Nc2ccc(OCc3ccccc3)cc2)CC1 | 1% | u | 1.4% | -7% | -1% | 18% | 2% | 0%
O=C(CCN=C1NS(=O)(=O)c2ccccc21)OCC(=O)c1ccc(F)c(F)c1 | 7% | -4% | x | 2% | x | -8% | -13%[46.1 µM] | x
Cc1ccccc1-c1nc(CN2CCCC(C(=O)NCc3ccc(Cl)cc3)C2)c(C)o1 (stereo not given) | 22%[46.1 µM] | u | -0.4% | x | x | x | 11%[46.1 µM] | -3%
CNc1ccc(Br)cc(C(=O)/C=C/c2cccc(OC)c2OC)c1=O | -21% | 1% | -16% | -22% | 10% | -10%[3.69 µM] | 11% | u
CCc1ccc(/C(C)=N/Nc2cc(Cl)nc(C)n2)cc1 | u | u | -14% | -5% | 2% | 48% | -23% | u
COc1ccc(/C(N)=N/OC(=O)Cc2ccccc2OC)cc1 | 27% | 24% | 1.5% | -7% | -8% | -23% | 21% | -8%
OC1CC(c2ccco2)NC2(CCCCC2)C1 (stereo not given) | 10% | 18% | 5.5% | -1% | u | 8% | 8% | -3%
CCC(CC)c1nn2c(=O)cc(COc3ccc(NC(=O)c4cccc(Cl)c4)cc3)nc2s1 | 3%[46.1 µM] | -11% | -1.2% | x | x | x | -5%[46.1 µM] | -2%
N#Cc1ccc(NC(=O)COC(=O)C2=COCCO2)cc1 | 15% | 12% | 2.7% | 5% | -6% | -8% | -2% | 0%
CC(C)(C)OC(=O)N1CCCN(C(=O)c2ccc(Cl)cc2)CC1 | -6%[46.1 µM] | -15% | x | -2% | 0% | 3% | u | x
COC(=O)c1c(NC(=O)CC2Sc3ccc(C(F)(F)F)cc3NC2=O)sc(C)c1C (stereo not given) | 11% | -17% | -4.9% | 14% | 3% | -15% | -17% | u

Some values from above:
COC(=O)c1c(NC(=O)CC2Sc3ccc(C(F)(F)F)cc3NC2=O)sc(C)c1C (stereo not given) in RE007 growth inh is entered as -15%
CC(C)(C)OC(=O)N1CCCN(C(=O)c2ccc(Cl)cc2)CC1 in RE007 growth inh is entered as 3%

Further compounds
SMILES | LASV entry inh | 2A StopGo | Cruzain inh Det | SARS PLpro yeast | NS1 function inh | RE007 growth inh | MARV entry inh | Cruzain noTriton
Cc1c(C(=O)NCc2cccnc2)oc2ccc(S(=O)(=O)N3CCCCCC3)cc12 | -15% | -29% | -8.3% | -2% | -33% | 7% | -6%&-6% | u
Cc1ccc(C)c(NC(=O)COc2coc(CN3CCc4ccccc4C3)cc2=O)c1 | u | u | x | 2% | x | 3% | u | x
Cc1cc(NC(=O)CSc2nc(C3CC3)nc3sc4c(c23)CCC(C)C4)no1 (stereo not given) | 16% | x | x | x | 11% | -2% | 0%&-14% | x
CN1CCN(CC(=O)N(C)c2nc(-c3ccccc3)cs2)CC1 | 4% | 17% | 5.9% | -4% | -9% | 0% | u | 4%
CSc1nnc(Cn2c(=O)sc3ccccc32)n1-c1cccc(Cl)c1 | 7% | -23% | -2.1% | -4% | -7% | 18% | 0% | 9%
CC(C)CC(=O)OCC(=O)Nc1ccccc1Sc1ccccc1 | -1% | -20% | -2.9% | -13% | -2% | -5% | -16% | 2%
CCOc1ccc(N2CC(C(=O)Nc3nnc(Cc4ccccc4)s3)CC2=O)cc1 (stereo not given) | x | 21% | x | -1% | 19% | 8% | u | x
